# Source: PubChem
# KCNQ2 pot = potentiators of rat KCNQ2 potassium channel; O88943; CHO-K1 KCNQ2, FluxOR thallium flux fluorescence; hits give high values; B-score at 10 µM; actives 0.54% (n = 310,000);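 active = fluorescence ratio B-score at least 3 SD of library B-scores, with initial fluorescence B-score within 3 SD, cut at about 5.3 in these data; same plate scores as AID 2156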;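 note: B-score of peak minus minimum over baseline fluorescence ratio after K+ and Tl+ stimulus; positive B-score means potentiation of KCNQ2 with more thallium influx and brighter signal; only the inactives scoring about 0 or higher are listed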
# Target sequence (O88943 whole entry, looked up): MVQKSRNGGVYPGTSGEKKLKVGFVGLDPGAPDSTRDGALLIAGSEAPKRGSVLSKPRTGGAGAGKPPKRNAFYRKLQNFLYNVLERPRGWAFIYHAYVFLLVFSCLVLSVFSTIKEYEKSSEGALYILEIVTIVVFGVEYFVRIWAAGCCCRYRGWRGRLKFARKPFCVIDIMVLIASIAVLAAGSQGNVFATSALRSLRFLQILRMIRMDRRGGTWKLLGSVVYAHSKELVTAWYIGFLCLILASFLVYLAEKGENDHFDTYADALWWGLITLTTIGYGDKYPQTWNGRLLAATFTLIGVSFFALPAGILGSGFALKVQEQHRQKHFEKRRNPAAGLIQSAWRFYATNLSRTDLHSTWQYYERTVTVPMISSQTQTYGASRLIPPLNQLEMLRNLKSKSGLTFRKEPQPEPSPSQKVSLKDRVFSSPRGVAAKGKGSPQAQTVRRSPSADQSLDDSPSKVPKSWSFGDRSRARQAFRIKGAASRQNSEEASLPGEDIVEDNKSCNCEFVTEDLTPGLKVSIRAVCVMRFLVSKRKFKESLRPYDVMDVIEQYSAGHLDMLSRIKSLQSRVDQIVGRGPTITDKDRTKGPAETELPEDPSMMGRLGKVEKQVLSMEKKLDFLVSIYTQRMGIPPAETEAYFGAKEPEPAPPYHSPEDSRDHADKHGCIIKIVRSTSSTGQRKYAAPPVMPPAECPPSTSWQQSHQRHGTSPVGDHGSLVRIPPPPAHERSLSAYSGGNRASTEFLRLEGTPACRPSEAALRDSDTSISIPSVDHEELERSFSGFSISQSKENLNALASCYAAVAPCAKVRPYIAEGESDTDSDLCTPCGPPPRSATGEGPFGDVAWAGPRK
# KCNQ2 pot baseline = second read-out of KCNQ2 pot, no call of its own (marks repeat the call); B-score; compound at 10 µM; measured here: initial fluorescence intensity artifact check;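 brightness before thallium and not channel activity; 0 = typical well and far values either way flag optical interference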
# * marks the source's active call; other numbers are inactive results; x = no result given.
# Preview (3 entries):
SMILES	KCNQ2 pot	KCNQ2 pot baseline
O=C1COc2ccc(C(=O)CSc3nnc(Cc4ccccc4)o3)cc2N1	0.48	0.52
COc1cc(Sc2ccc(C)cc2)c(OC)cc1N	0.4	-1.8
COc1ccc(C(=O)c2cn[nH]c2-c2ccc(C)cc2O)cc1	0.93	-0.91

# This part in full (from the top)
SMILES	KCNQ2 pot	KCNQ2 pot baseline
O=C1COc2ccc(C(=O)CSc3nnc(Cc4ccccc4)o3)cc2N1	0.48	0.52
COc1cc(Sc2ccc(C)cc2)c(OC)cc1N	0.4	-1.8
COc1ccc(C(=O)c2cn[nH]c2-c2ccc(C)cc2O)cc1	0.93	-0.91
CN(C)C1(CNCC(O)c2ccccc2)CCCCC1 (stereo not drawn)	0.08	-1.8
CC(=O)Oc1ccc(-c2cc3ccccc3oc2=O)cc1	1.2	1.1
Cc1cc(C)c(NC(=O)CS(=O)CC(=O)NCC2CCCO2)c(C)c1 (stereo not drawn)	3.9	-0.95
N#CC1=C(N)NC(SCc2ccccc2)=C(C#N)C12CCCCC2	0.52	1.2
CCN(CC)S(=O)(=O)c1ccc(C)c(NC(=S)N2CCN(c3ccccn3)CC2)c1	1.4	-0.16
Cc1ccc(CNC(=O)Nc2ccc(Cl)cc2)cc1	2.3	-1
CCCNC(=S)N1CCN(CC)CC1	0.02	0.53
CC1(C)CC(=O)c2sc(NS(=O)(=O)c3ccc(F)cc3)nc2C1	0.02	0.17
CCCCCCCCCn1cc(C(C)=O)c(=O)[nH]c1=O	0.7	0.17
O=C(c1ccc(S(=O)(=O)NCC2CCCO2)cc1)N1CCc2ccccc21 (stereo not drawn)	2.4	-0.22
Cc1ccc(NC(=O)COC(=O)[C@@H]2CCCN2C(=O)c2cccs2)cc1S(=O)(=O)N(C)C	1.3	-1.2
CCCc1nnc(SCCSc2nnc(CCC)n2N)n1N	0.12	0.64
CCOC(=O)C1CCN(C(=O)c2cccnc2Oc2ccc(Cl)cc2)CC1	0.29	-0.08
Cc1cc(C)cc(Oc2ccccc2/C=C\C(=O)O)c1	1.3	-0.54
COCc1cc(C)nc(N2CCOCC2)c1C#N	1.2	-2.3
COc1ccccc1-c1nnc(SCC(=O)NCc2cccs2)n1N	0.16	-1.8
COc1ccc(CCNC(=O)C2CCN(C(=O)c3ccc(Cl)cc3)CC2)cc1	0.55	1.2
O=C1CN=CN=CN1c1ccc(Cl)cc1Cl	0.21	0.79
Cc1ccnc(SCCn2c(N3CC(C)OC(C)C3)nc3c2c(=O)n(C)c(=O)n3C)n1 (stereo not drawn)	2.1	-0.85
C/C(=N\NC(=O)c1c(Cl)cnn1C)c1ccc(NC(=O)c2ccc(Br)o2)cc1	1.7	-1.6
Cc1ccc(-c2cc3ccccc3nc2N)cc1	0.63	0.1
Cc1c(OCC(=O)N2CCC(C(N)=O)CC2)ccc2c3c(c(=O)oc12)CCCC3	0.9	0.37
COC(=O)c1ccc(CSc2nnc(NCc3ccccc3)s2)o1	0.29	0.98
COCCN(C(=O)CSc1nnc(C)n1-c1ccc(C)cc1)c1c(N)n(Cc2ccccc2)c(=O)[nH]c1=O	1	-0.23
Cc1ccc(NC(=O)CN2CCOCC2)cc1	0.15	1.6
N#CCCn1cc(C=C(C#N)C#N)c(-c2ccc(Cl)cc2)n1	1.3	-0.66
Cc1cc(C)cc(N(CC(=O)N2CCCC2)S(C)(=O)=O)c1	0.18	-0.04
O=C(Nc1ccc2[nH]ncc2c1)C1CCC1	0.95	0.92
COc1ccccc1CCNC(=O)C1CCC(=O)N(C2CC2)C1 (stereo not drawn)	0.52	0.63
CC(=O)c1cccc(N(C(=O)c2ccccn2)C(C(=O)NC2CCCCC2)c2ccccc2)c1 (stereo not drawn)	2.1	-0.08
O=C(COc1ccc(Cl)cc1Cl)Nc1cccnc1	2.5	0.4
Cc1cc2c(OCC(O)CNC3CCCCC3)cccc2[nH]1 (stereo not drawn)	0.79	0.64
Cc1cccc(Oc2ncnc(N)c2[N+](=O)[O-])c1	1.1	-1.1
CCc1c(C(C)S(=O)(=O)c2ccc(C)cc2)[nH]c(=O)n1-c1ccc(C)cc1 (stereo not drawn)	0.7	2.1
Fc1ccccc1NC(=S)NCc1ccc2c(c1)OCO2	0.13	0.87
CN(C)S(=O)(=O)N1CCCN(S(=O)(=O)N(C)C)CC1	0.54	-1.7
COc1ccc(CCN2C(=O)N[C@@H](C(C)C)C2=O)cc1	0.02	-0.15
CC(C)(C)C(=O)NC(=S)NNC(=O)c1sc2ccccc2c1Cl	12	8.8
CCC(C)Sc1ccc([C@H]2N[C@@](C)(C(=O)OC)[C@H]3C(=O)N(CC)C(=O)[C@@H]23)cc1 (stereo partly drawn)	1.7	-0.06
CC(=O)C1=C(O)C(=O)N(c2ccc(C)cc2)C1c1ccccn1 (stereo not drawn)	0.62	0.95
COc1ccc(-n2nnc3c(=O)n(CC(=O)Nc4ccc5c(c4)OCCO5)cnc32)cc1OC	0.57	-1.2
CCCCN(CC)S(=O)(=O)c1ccc(C(=O)Nc2nnc(-c3cccs3)o2)cc1	0.08	0.25

# Quoted from above (5 entries):
SMILES	KCNQ2 pot	KCNQ2 pot baseline
CC(C)(C)C(=O)NC(=S)NNC(=O)c1sc2ccccc2c1Cl	12	8.8
CCC(C)Sc1ccc([C@H]2N[C@@](C)(C(=O)OC)[C@H]3C(=O)N(CC)C(=O)[C@@H]23)cc1 (stereo partly drawn)	1.7	-0.06
CC(=O)C1=C(O)C(=O)N(c2ccc(C)cc2)C1c1ccccn1 (stereo not drawn)	0.62	0.95
COc1ccc(-n2nnc3c(=O)n(CC(=O)Nc4ccc5c(c4)OCCO5)cnc32)cc1OC	0.57	-1.2
CCCCN(CC)S(=O)(=O)c1ccc(C(=O)Nc2nnc(-c3cccs3)o2)cc1	0.08	0.25

# (cont.)
SMILES	KCNQ2 pot	KCNQ2 pot baseline
CCNc1nc(C)c(CN(C(C)=O)c2ccccc2)nc1C#N	0.39	-1.8
O=C(OCc1ccccc1)c1cn(-c2ccccc2)nc1-c1ccncc1	0.5	0.4
COc1ccc(CCN(C)CC(O)COc2ccc(C(C)=O)cc2OC)cc1OC (stereo not drawn)	0.1	0.35
CC(Oc1ccc2cc(-c3ccccc3)c(=O)oc2c1)C(=O)NCC1CCC(C(=O)O)CC1 (stereo not drawn)	1.7	-2.6
Clc1ccc(N2N=C(c3cccs3)CC2c2ccco2)cc1 (stereo not drawn)	2.2	0
Cc1ccc(S(N)(=O)=O)cc1NC(=O)C(c1ccccc1)c1ccccc1	0.8	-0.23
CC(C)=CC(=O)Nc1nnc(C)s1	0.02	0.71
Cc1cc(=O)n2c(ccc3ccccc32)c1C#N	0.92	-0.2
Cc1ccc(S(=O)(=O)N(C)C)cc1NC(=O)c1sccc1Cl	0.11	0.81
CC(NC(=O)CN(c1ccc(Cl)cc1)S(C)(=O)=O)c1ccccc1 (stereo not drawn)	0.16	-2.5
O=C(NCCCN1CCCC1=O)c1ccc2c(c1)NC(=O)c1ccccc1S2	0.69	-0.91
CCn1c(C)cc(/C=C2/NC(=O)N(CC(=O)Nc3cccc(C)c3)C2=O)c1C	1.1	-0.84
Cc1c(C(=O)OCC(=O)NCCN2C(=O)CSC2=O)oc2c1ccc1ccccc12	0.35	1.3
COCCNC(=O)C1CCCN(c2ncccn2)C1 (stereo not drawn)	0.06	0
CCCCCNC(=O)C(C)NS(=O)(=O)c1ccc(OC)cc1 (stereo not drawn)	1	-0.69
Cc1ccc(OCC(=O)Oc2cccc(C)c2C)cc1	1.1	-3.7
O=C(COC(=O)c1ccccn1)Nc1ccccc1Cl	0.75	0.02
Cc1cc2cc(C(c3nnnn3C(C)(C)C)N(Cc3ccco3)CC3CCCO3)c(=O)[nH]c2cc1C (stereo not drawn)	0.49	1
CCC(C)Sc1nc2c(cnn2-c2ccccc2)c(=O)[nH]1 (stereo not drawn)	1	0.53
CSc1cccc(NC(=O)C2CCN(S(=O)(=O)c3ccc4c(c3)NC(=O)CO4)CC2)c1	0.19	-0.77
Cc1sc2ncn(CC(=O)NCCCC(=O)N3CCN(c4ccccc4)CC3)c(=O)c2c1C	0.99	-1.4
COc1cc(OC)c(C(=O)O/N=C(\N)c2ccccn2)cc1OC	2.9	0
CC/C(=N/Nc1ccccc1C)c1cnnc(SC)n1	0.35	0.08
CC(C)(CO)NCC(O)Cn1cc(C=O)c2ccccc21 (stereo not drawn)	1.7	1
Cc1sc2nc(C(C)C)nc(SCC(=O)NCc3ccco3)c2c1C	4.6	1.1
CC1CCN(C(=O)C2CCC(C)(C(=O)O)C2(C)C)CC1 (stereo not drawn)	0.86	-0.1
CCOC(=O)N1CCN(C(=O)CN(c2ccc(Cl)c(C(F)(F)F)c2)S(C)(=O)=O)CC1	1.5	2.4
Cc1cccn2c(=O)c(/C=C(\C#N)C(N)=O)c(N3CCCCCC3)nc12	1.1	-0.3
O=C(Cn1nnc(-c2ccc(Cl)cc2)n1)NC1CC2CCC1C2 (stereo not drawn)	0.14	-0.27
O=C(Cn1cccc1C(=O)c1ccccc1)NCCc1ccc(Cl)cc1	0.45	0.77
C=CCSc1ncc(C(=O)OCC)c(N)n1	2.3	-0.89
CC(C)C(=O)NCc1cc(-c2ccccc2)no1	2	0.76
COc1ccc(NC(=O)C(NC(C)=O)C(=O)NCc2ccccc2)cc1 (stereo not drawn)	0.81	1.2
OC[C@@H](O)[C@@H](O)[C@H](O)[C@@H](O)CO	0.68	-1.3
CCCC1c2ccsc2CCN1C(=S)NC (stereo not drawn)	0.78	2.6
CC(C)c1ccc(S(=O)(=O)Nc2ccc(N3CCOCC3)cc2)cc1	1.7	0.1
COc1cccc(OCc2nn3c(=O)c(-c4ccccc4)nnc3s2)c1	0.93	-3.1
CCOC(=O)c1cc(C#N)c(N2CCNCC2)nc1C(F)(F)F	0.48	-0.12
Cc1ccc2c(CSc3nnc(C4CC4)n3N)cc(=O)oc2c1	2.2	0
O=S(=O)(c1ccccc1)N(CC1CO1)c1cc(Cl)ccc1Cl (stereo not drawn)	0.52	0.06
CN(C)c1cccc2c1c(NC(=O)Nc1ccccc1)nn2C	1.7	-0.06
COc1cc(C=O)ccc1OCCOCCOc1cc(C)ccc1Cl	0.76	-0.2
COc1cc(OC)cc(C(=O)NCC(=O)OCC(=O)N2CC(C)CC(C)C2)c1 (stereo not drawn)	0.63	0.21
O=C(c1ccco1)N1CCN=C1SCc1cccc(Cl)c1	0.99	1.5
O=C(c1ccc(CN2CCOCC2)cc1)N1CCN(c2ccccc2F)CC1	0.78	-0.35
O=C(NCc1cccnc1)c1ccccc1NS(=O)(=O)c1ccc(F)cc1	1.9	0.02
Cn1c(=O)c2[nH]c(CNc3ccc(C(=O)O)cc3)nc2n(C)c1=O	0.19	-0.88
COc1ccc(NC(=O)COc2cccc3c2CCN(Cc2cccnc2)C3=O)cc1	0.02	1.3
CC(C)(C)C(=O)NC(=S)N1CCCC1	1.8	0.18
CCC(=O)N1CCc2cc(S(=O)(=O)CCC(=O)Nc3ccc(OC)cc3)ccc21	1.1	1.3
O=C(N/N=C\C=C\c1ccc2c(c1)OCO2)C1COc2ccccc2O1 (stereo not drawn)	0.45	1
CCOc1ccc(C(C)=O)cc1CN1C(=O)NC2(CCCCCCC2)C1=O	0.23	-1.5
COC(=O)c1ccccc1NC(=O)C1CCN(S(C)(=O)=O)CC1	0.18	-0.11
COc1ccc(NC(=O)c2c[nH]n3c(=O)cc(C4CCN(C(=O)OC(C)(C)C)CC4)nc23)cc1Cl	6.3*	-0.09*
COc1ccc(-n2c(C)cc(/C=N/Nc3nnc(C)n3N)c2C)cc1	0.05	-0.18
COc1cc(CNc2nc3c(C)cc(C)cc3s2)ccc1O	0.35	-0.24
CCOC(=O)N1CCN(Cc2cc(Cl)c3cccnc3c2O)CC1	15*	0.96*
CCCCCCOc1cccc(N)c1	0.03	0.07
CCN(CC)C(=N)/C(C#N)=N/Nc1ccc(C)cc1	0.01	1.3
C=CCS(=O)(=O)N1CCCC(Cc2ccccc2C)(C(=O)OCC)C1 (stereo not drawn)	0.25	-0.6

# Remaining list, next part.
SMILES	KCNQ2 pot	KCNQ2 pot baseline
CCOC(=O)C1(C(F)(F)F)N=C(C(F)(F)F)Nc2ccccc21 (stereo not drawn)	0.43	0.09
CCOc1ccccc1N1CCN(Cc2cccc(OC)c2OC)CC1	0.05	-1.1
COc1ccc(OC)c(NC(=O)C(=S)NC2CCCCC2)c1	0.98	-0.46
Cc1cc(SCC(=O)Nc2cccc(S(N)(=O)=O)c2)c(C)cc1Br	1.5	-0.85
CCc1nnc(NS(=O)(=O)c2ccc(NC(=S)NC(=O)/C=C/c3ccc(OC)cc3)cc2)s1	0.34	0
O=C(CCc1nnc(C2CCCCC2)o1)N1CCCCC1CCn1cccn1 (stereo not drawn)	1.1	-0.22
CCOC(=O)N1CCN(c2ccccc2OC)CC1	1.8	-0.24
COc1cc(S(=O)(=O)NCCCn2ccnc2)ccc1Cl	0.14	0.73
O=C(c1c(O)c2ccccc2oc1=O)C1CCCCC1	1.5	1.6
Cc1ccc(O)c(C2=Nc3ccccc3N=C(c3cccs3)C2)c1	-5.6	x
COCC1CCCCN1C(=O)c1ccc2nc(Cc3ccc(OC)c(OC)c3)oc2c1 (stereo not drawn)	0.12	0
O=C(COc1ccccc1)NCC(=O)N/N=C/C=C/c1ccccc1	0.07	2
CCOC(=O)c1cnc(SC)nc1N	0.03	0.73
CCOC(=O)c1cc2sccc2n1CC(=O)N1CCCC1	0.2	-0.08

# Not all compounds are listed; the hit share may differ from the screen's.
